Compound activity from PubChem BioAssay.
TRPML1 ag: human mucolipin-1 channel agonism; activation, % (test concentration not listed); Q9GZU1; TRPML1-expressing cells, Ca2+ dye fluorescence, FDSS; host cell line not named in the record; reference of the full effect not given here; 410,000 compounds, 0.12% hits; AID 624414; in the data active = activation above about 50%; inconclusive = about 30% to 50%; inactive = below about 30%; note: 0% is about no effect; the text of the record puts the active cut at 80%
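Calcium fluorescence on an FDSS kinetic reader gave the read-out. Tet-induced TRPML1-DL cells were plated overnight, dye-loaded (Ca8 with quencher, 45-90 min, room temperature, dark), then read 110 s after compound addition, and again 110 s after 4uM final 54-4 (EC80).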
Menin-MLL FL inh: menin-MLL binding inhibition, fluorescein peptide. Fluorescence polarization, fluorescein-MLL peptide displacement from menin. FP activity change, % at 61.4 µM. 290,000 tested, under 10 active; inconclusive = falling polarisation curve, or a change in total fluorescence; inactive = total fluorescence flat and polarisation flat or rising; no compound was filed as active; the % refers to the polarisation; negative = inhibition;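 note: % of control where 0% means no effect; inhibitors lower the polarisation; unlabelled MLL peptide was the positive control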
PINK1 expr mod: changes PINK1 expression | 410,000 compounds, 0.2% hits | AID 624263 | Potency, µM (doses to about 76.6 µM), without a hit: at the highest dose activation (PINK1 increase), actives largely listed as activators | PINK1 immunofluorescence, high-content cytometry, 24 h; active = well fitted activation curve with a large enough effect; inconclusive = small, poorly fitted or top-dose-only effect; inactive = flat fitted curve, though single readings scatter; cell line not stated here;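 note: potency is the fitted concentration of half-maximal effect; % of control where 0% means no effect; nearly all actives have a fitted effect of over 65% in size; a mitochondrial uncoupler was the plate control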
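Fluorescence from anti-PINK1 antibody, together with nuclear and cell stains, was scanned on a laser-scanning cytometer. Before staining, stable-line cells were incubated 24 hours with compounds at 5 concentrations; primary antibody 12 h at 10 degrees C.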
TRPV1 potentiator: human TRPV1 potentiation. potentiation, % at 8.33 µM. AID 540277. Q8NER1. TRPV1-expressing cells, Fluo-8 calcium influx, capsaicin EC20 potentiation; host cell line not named in the record; control for the full effect not named in the record. 320,000 compounds, 0.02% hits; active means potentiation above 80%; inconclusive means 30% to 80%; inactive means below 30%; note: 0% is about no effect
Target sequence (Q8NER1 whole entry, looked up): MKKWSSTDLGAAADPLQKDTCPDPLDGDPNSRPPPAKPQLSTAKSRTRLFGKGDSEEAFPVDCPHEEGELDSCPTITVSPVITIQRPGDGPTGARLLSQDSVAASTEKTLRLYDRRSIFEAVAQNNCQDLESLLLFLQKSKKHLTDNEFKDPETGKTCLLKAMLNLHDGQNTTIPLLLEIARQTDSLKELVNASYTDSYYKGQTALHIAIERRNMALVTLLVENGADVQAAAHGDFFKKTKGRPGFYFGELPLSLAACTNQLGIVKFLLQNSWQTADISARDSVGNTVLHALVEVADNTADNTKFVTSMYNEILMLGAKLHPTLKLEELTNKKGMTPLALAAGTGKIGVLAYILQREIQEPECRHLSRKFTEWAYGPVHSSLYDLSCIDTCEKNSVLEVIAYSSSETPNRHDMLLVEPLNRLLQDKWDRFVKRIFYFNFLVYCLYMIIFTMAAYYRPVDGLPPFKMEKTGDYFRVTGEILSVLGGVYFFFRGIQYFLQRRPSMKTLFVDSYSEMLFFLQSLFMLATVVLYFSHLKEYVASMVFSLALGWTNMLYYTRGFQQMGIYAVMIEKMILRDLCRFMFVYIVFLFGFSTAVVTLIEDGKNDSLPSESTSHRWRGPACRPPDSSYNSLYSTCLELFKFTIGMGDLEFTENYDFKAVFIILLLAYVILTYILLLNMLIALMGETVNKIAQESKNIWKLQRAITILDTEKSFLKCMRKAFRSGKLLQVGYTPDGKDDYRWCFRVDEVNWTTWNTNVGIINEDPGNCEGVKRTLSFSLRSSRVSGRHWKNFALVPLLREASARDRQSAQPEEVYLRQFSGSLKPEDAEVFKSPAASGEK
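Cells expressing TRPV1 were dye-loaded with Fluo-8 and read kinetically: 10 s baseline, 3 min after compound (agonist portion), then 2 min after EC20 capsaicin (allosteric enhancer portion). Calcium-bound dye fluorescence at 480/520 nm.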
Sfp inh: inhibitors of Bacillus subtilis Sfp phosphopantetheinyl transferase; Q9F4F7; Biochemical Sfp PPTase activity, qHTS; Potency, µM, without a hit: max response, negative = inhibition, usual class: inhibitors; 310,000 compounds, 3.5% hits; active = well fitted inhibition curve with a large enough effect; inconclusive = small, poorly fitted or top-dose-only effect, or another doubt; inactive = no such curve, though single readings can be large or run the other way;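 note: the enzyme is Sfp with the accession as filed and its product quenches rhodamine fluorescence; potency is the fitted concentration of half-maximal effect; 0% = enzyme reaction without inhibitor and -100% = no enzyme wells; top concentration of the series not given in the record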
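Compounds were incubated with enzyme (final 15 nM) for 15 min at room temperature before substrate addition started the reaction. Fluorescence at 525 nm excitation, 598 nm emission was recorded immediately and after 30 minutes.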
ClpP mod: qHTS Assay for Activators of ClpP. ATP-dependent Clp protease proteolytic subunit (Bacillus subtilis (strain 168)), P80244. purified B. subtilis ClpP, FRET peptide cleavage, 20 min. Potency, µM (highest dose often 57.5 µM), for inactives: at the highest dose activity change, negative = active. 340,000 compounds, 1.9% hits. AID 651965, 2013; active = well fitted falling curve with a large enough effect; inconclusive = small, poorly fitted or top-dose-only effect; inactive = no such curve, though single readings can be large or run the other way; note: potency is the fitted concentration of half-maximal effect; the source files actives as falling curves though it sought activators and does not explain the sign; nearly all actives have a fitted effect of over 65% in size; many hits overshoot -100%
Target sequence (P80244 whole entry, looked up): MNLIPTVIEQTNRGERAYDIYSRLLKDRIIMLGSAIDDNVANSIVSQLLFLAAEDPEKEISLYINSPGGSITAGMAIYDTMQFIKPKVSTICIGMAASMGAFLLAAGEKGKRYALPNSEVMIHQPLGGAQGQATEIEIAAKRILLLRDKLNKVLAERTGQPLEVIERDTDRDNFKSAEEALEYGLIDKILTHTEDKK
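FRET quenching reversal measured ClpP activation: 10 microg/mL B. subtilis ClpP at pH 8 with the FRET-FV decapeptide, read at 430 nm after 320 nm excitation. The 20-min minus 0-min signal was scaled between DMSO/no-enzyme wells and ADEP (5.8 microM final).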
TRPML1 inh: inhibitors of human TRPML1 channel; activity change, negative = inhibition, % (concentration not given with the values); Q9GZU1; 390,000 compounds, 0.02% hits; TRPML1-inducible cells, Ca2+ dye fluorescence, FDSS; active compounds read low; inhibition of EC80 agonist-evoked calcium signal; in the data active means activity change below about -50%; inconclusive means about -30% to -50%; inactive means above about -30%;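 note: stimulus is agonist 54-4 at its EC80 concentration; % is set by controls: 0 for no effect and ±100 for the full control effect; the text of the record puts the active cut at -80%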
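TRPML1-DL cells, Tet-induced overnight (~16 h, 37 °C) at 1,500 cells/well, were loaded with Ca8 no-wash dye plus quencher for 45-90 min at room temperature. Compounds were pinned during FDSS kinetic reading; agonist 54-4 at EC80 (4 uM final) then added.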
The depositor's hits bear a star; [ ] = dose if it differs, or a comment.

How did CCn1c(=O)cc(N2CCC3(CC2)OCCO3)[nH]c1=O do in these assays?
TRPML1 ag: 0.2; Menin-MLL FL inh: 1.0; PINK1 expr mod: 3.5%; TRPV1 potentiator: 26.0; Sfp inh: -4.8%; ClpP mod: -2.3%; TRPML1 inh: -1.4

What do the screens show for `COc1ccc(C2C3=C(CC(C)(C)CC3=O)Oc3ncn(CCCn4ccnc4)c(=N)c32)cc1` (centres undefined)?
TRPML1 ag: 1.1; Menin-MLL FL inh: 1.4; PINK1 expr mod: -1.2%; TRPV1 potentiator: -0.9; Sfp inh: 15.1%; ClpP mod: 1.6%; TRPML1 inh: 19.9

Results for NNC(=O)c1cc2ccccc2cc1NS(=O)(=O)c1ccccc1 ?
TRPML1 ag: 0.3; Menin-MLL FL inh: 0.2; PINK1 expr mod: -0.3%; TRPV1 potentiator: 12.9; Sfp inh: 11.2%; ClpP mod: 0.5%; TRPML1 inh: 20.2

How did CC(C)C(=O)NC(Nc1cccc2cccnc12)C(Cl)(Cl)Cl (centres undefined) do in these assays?
TRPML1 ag: 0.4; Menin-MLL FL inh: 4.2; PINK1 expr mod: 0.5%; TRPV1 potentiator: 10.1; Sfp inh: 3.3%; ClpP mod: -0.2%; TRPML1 inh: 4.9

What do the screens show for `O=C(Nc1nnc(-c2ccc(F)cc2)o1)c1cc(Cl)sc1Cl`?
TRPML1 ag: 29.0; Menin-MLL FL inh: 3.3; PINK1 expr mod: 0.7%; TRPV1 potentiator: -10.4; Sfp inh: 18.3%; ClpP mod: -2.1%; TRPML1 inh: -12.7

What do the screens show for `COc1ccc(-c2c(C#N)c(SCC(=O)Nc3ccccc3C)nc(C)c2C(=O)Nc2ccccc2)cc1OC`?
TRPML1 ag: 3.7; PINK1 expr mod: -0.6%; ClpP mod: 4.3%; TRPML1 inh: -22.9

What do the screens show for `O=C(Nc1cccnc1)Nc1cc(Cl)cc(Cl)c1`?
TRPML1 ag: -0.4; Menin-MLL FL inh: -0.3; PINK1 expr mod: inconclusive; TRPV1 potentiator: -8.0; Sfp inh: inconclusive; ClpP mod: -2.7%; TRPML1 inh: -6.3

How did Nc1ccc(-c2nc(-c3ccccc3)nc3ccccc23)cc1 do in these assays?
TRPML1 ag: 1.7; Menin-MLL FL inh: 0.4; PINK1 expr mod: 3.8%; TRPV1 potentiator: -3.2; Sfp inh: 8.4%; ClpP mod: -11.0%; TRPML1 inh: 23.7

How did C[C@H](CO)N1C[C@H](C)[C@@H](CN(C)C(=O)NC2CCCCC2)Oc2ccc(NS(=O)(=O)c3cn(C)cn3)cc2C1=O do in these assays?
TRPML1 ag: -0.6; PINK1 expr mod: -0.5%; ClpP mod: -0.4%; TRPML1 inh: -5.4

How did O=C(O)c1cccc(NC(=O)c2ccccc2NC(=O)c2ccccc2F)c1 do in these assays?
TRPML1 ag: 0.2; Menin-MLL FL inh: -2.2; PINK1 expr mod: 1.9%; TRPV1 potentiator: 7.0; Sfp inh: 9.2%; TRPML1 inh: 8.1

Results for O=C(NC1CC1)C(Cc1ccccc1)NS(=O)(=O)c1ccccc1F (centres undefined) ?
TRPML1 ag: -0.8; Menin-MLL FL inh: -7.0; PINK1 expr mod: 4.7%; TRPV1 potentiator: 1.7; Sfp inh: 1.7%; TRPML1 inh: 14.2

How did O=C(NCc1ccccc1)c1csc2c1CCCC2 do in these assays?
TRPML1 ag: -0.9; Menin-MLL FL inh: -2.9; PINK1 expr mod: -0.6%; TRPV1 potentiator: 3.7; Sfp inh: 12.1%; ClpP mod: -0.4%; TRPML1 inh: 5.3

How did CCSc1nc2c([nH]c3ccccc32)c(=O)n1-c1ccc(OC)cc1 do in these assays?
TRPML1 ag: 0.6; PINK1 expr mod: -5.5%; ClpP mod: 3.1%; TRPML1 inh: 21.8

Results for CCN1C(=O)/C(=C\c2cccc(OC(=O)c3ccco3)c2)SC1=S ?
TRPML1 ag: -0.5; PINK1 expr mod: -0.1%; TRPV1 potentiator: 6.0; Sfp inh: 7.2%; TRPML1 inh: 11.7

What do the screens show for `O=S(=O)(c1ccccc1)c1cnc(-c2ccccc2)nc1N1CCCCC1`?
TRPML1 ag: 1.7; Menin-MLL FL inh: -5.4; PINK1 expr mod: 1.9%; TRPV1 potentiator: 23.3; Sfp inh: -17.2%; ClpP mod: -18.3%; TRPML1 inh: 58.5

Results for COc1ccc(C(CNC(=O)c2cccc(S(=O)(=O)N3CCc4ccccc43)c2)N(C)C)cc1 (centres undefined) ?
TRPML1 ag: 0.4; PINK1 expr mod: -0.8%; ClpP mod: -1.5%; TRPML1 inh: 28.4

How did CSc1ncccc1C(=O)OCC(=O)c1ccc2c(c1)NC(=O)CO2 do in these assays?
TRPML1 ag: 0.1; Menin-MLL FL inh: -2.7; PINK1 expr mod: 7.0%; TRPV1 potentiator: 1.8; Sfp inh: 5.7%; ClpP mod: 0.2%; TRPML1 inh: -9.1

Results for O=C(CSc1nc2ccccc2c(=O)[nH]1)Nc1ccc(S(=O)(=O)N2CCCC2)cc1 ?
TRPML1 ag: 0.6; Menin-MLL FL inh: -1.4; PINK1 expr mod: -3.3%[38.3 µM]; TRPV1 potentiator: 3.9; Sfp inh: 15.3%; ClpP mod: -4.4%; TRPML1 inh: -4.8

Results for O=S(=O)(N/N=C\c1cccnc1)c1ccccc1 ?
TRPML1 ag: 0.2; Menin-MLL FL inh: 0.9; PINK1 expr mod: -4.0%; TRPV1 potentiator: -1.3; Sfp inh: 23.9%; ClpP mod: -0.8%; TRPML1 inh: 2.5

What do the screens show for `O=C(N/N=C/c1ccc(Br)cc1)c1cc[n+](Cc2ccccc2)cc1`?
TRPML1 ag: -1.1; Menin-MLL FL inh: 2.4; PINK1 expr mod: 2.1%; TRPV1 potentiator: -11.5; Sfp inh: 79.4µM*; ClpP mod: -0.2%; TRPML1 inh: 14.1

How did Cc1nc2ccccn2c(=O)c1NC(=O)c1ccc(C(F)(F)F)cc1 do in these assays?
TRPML1 ag: 0.2; PINK1 expr mod: 1.8%; ClpP mod: -2.0%; TRPML1 inh: -4.0

How did COc1ccc(OCC(=O)Nc2nc3cc4c(cc3s2)OCCO4)cc1 do in these assays?
TRPML1 ag: 0.8; PINK1 expr mod: 2.0%; TRPML1 inh: 27.0

How did CN1CCCN(C(=O)CNC(=O)c2ccccc2Br)CC1 do in these assays?
TRPML1 ag: -0.4; PINK1 expr mod: -1.3%; ClpP mod: 0.2%; TRPML1 inh: -5.2

How did O=C(c1cccs1)N(Cc1cccnc1)c1nc2c(Cl)cccc2s1 do in these assays?
TRPML1 ag: 4.2; PINK1 expr mod: 0.9%; ClpP mod: -4.1%; TRPML1 inh: -20.0

What do the screens show for `CCc1ccc(NC(=O)CC2C(=O)N(c3cccc(C)c3)C(=O)N2Cc2cccs2)cc1` (centres undefined)?
TRPML1 ag: 3.2; PINK1 expr mod: -0.1%; ClpP mod: -1.2%; TRPML1 inh: -4.7

Results for CC(=O)c1cccc(N(C(=O)Cn2nnc3ccccc32)C(C(=O)NC2CCCCC2)c2cn(C)nc2C)c1 (centres undefined) ?
TRPML1 ag: 0.3; Menin-MLL FL inh: 0.0; TRPV1 potentiator: 1.2; Sfp inh: 7.0%; ClpP mod: 1.0%; TRPML1 inh: -16.0

Results for Cc1nnc2ccc(N3CCC4(CC3)OCCO4)nn12 ?
TRPML1 ag: 0.0; Menin-MLL FL inh: 0.4; PINK1 expr mod: -0.4%[38.3 µM]; TRPV1 potentiator: 14.8; Sfp inh: 13.5%; ClpP mod: -2.1%; TRPML1 inh: 2.5

How did COc1ccc(C(=O)N(C)c2ccccc2C(=O)NCCc2ccccc2)cc1 do in these assays?
TRPML1 ag: 0.4; Menin-MLL FL inh: 2.5; PINK1 expr mod: 0.2%; TRPV1 potentiator: 14.4; Sfp inh: 16.2%; ClpP mod: 1.4%; TRPML1 inh: 15.9

What do the screens show for `C/C(=C(\C#N)C(=O)NCc1ccccc1)N(C)C`?
TRPML1 ag: -0.3; Menin-MLL FL inh: 6.7; PINK1 expr mod: 2.5%; TRPV1 potentiator: 5.6; Sfp inh: -5.1%; ClpP mod: -20.8%; TRPML1 inh: 40.1

What do the screens show for `Cc1c(C)c2c(OCC(=O)N[C@@H](Cc3ccccc3)C(=O)O)cc3c(c2oc1=O)CCC(C)(C)O3`?
Menin-MLL FL inh: -4.2; PINK1 expr mod: 0.8%; TRPV1 potentiator: 5.6; Sfp inh: 1.2%; ClpP mod: 4.3%

How did Cc1ccc(S(=O)(=O)NCC(c2ccco2)N2CCc3ccccc3C2)cc1 (centres undefined) do in these assays?
TRPML1 ag: 8.0; PINK1 expr mod: 10.0%; TRPV1 potentiator: inconclusive; ClpP mod: 2.3%; TRPML1 inh: -5.7

Results for O=[N+]([O-])c1cc(C(F)(F)F)ccc1SCC(O)CO (centres undefined) ?
TRPML1 ag: -0.8; Menin-MLL FL inh: 1.2; PINK1 expr mod: -0.6%; TRPV1 potentiator: -12.4; Sfp inh: 7.8%; TRPML1 inh: 9.5

Results for N#CC1(c2ccccc2)CCCN1C(=O)c1ccco1 (centres undefined) ?
TRPML1 ag: -0.1; Menin-MLL FL inh: 3.7; PINK1 expr mod: -0.7%; TRPV1 potentiator: inconclusive; Sfp inh: 13.0%; ClpP mod: -2.0%; TRPML1 inh: -2.1

What do the screens show for `Cc1ccc(S(=O)(=O)N2CCN(c3c([N+](=O)[O-])cc(C(F)(F)F)cc3[N+](=O)[O-])CC2)cc1`?
TRPML1 ag: 0.4; Menin-MLL FL inh: 5.4; PINK1 expr mod: 0.6%; TRPV1 potentiator: 11.0; Sfp inh: 4.3%; ClpP mod: -3.0%; TRPML1 inh: -1.2

What do the screens show for `C[C@H](CO)N1C[C@H](C)[C@@H](CN(C)C(=O)NC2CCCCC2)Oc2ccc(NS(=O)(=O)c3cccs3)cc2C1=O`?
TRPML1 ag: -0.9; PINK1 expr mod: 7.9%; ClpP mod: -0.1%; TRPML1 inh: 33.6
